AF4-AF9 inh – blocks AF4 peptide binding to human AF9. AlphaScreen, biotin-AF4 peptide binding to FLAG-AF9. AID 651704. inhibition, % at 10 µM. 350,000 compounds, 0.47% hits;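 active = every replicate reaching a set inhibition limit, whatever the replicate mean, cut at about 25% in these data; inconclusive = mean inhibition reaches that limit but some replicates miss it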;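 also: 0% = plate neutral control median and 100% = total signal loss; the record names both 10 and 1 µM as test concentration; the first replicate is given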
FGF22 binding – binders of recombinant human FGF22 by thermal shift; calls only at 9.99 µM; AID 651658; Q9HCT0; 340,000 compounds, 1.5% hits; SYPRO orange fluorescence; percent of sucrose octasulfate shift, DMSO zero;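 active = melting point raised past a set limit in the mean and every replicate; inconclusive = no clear call; three in four hits are not shown here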
Target sequence (Q9HCT0 whole entry, looked up): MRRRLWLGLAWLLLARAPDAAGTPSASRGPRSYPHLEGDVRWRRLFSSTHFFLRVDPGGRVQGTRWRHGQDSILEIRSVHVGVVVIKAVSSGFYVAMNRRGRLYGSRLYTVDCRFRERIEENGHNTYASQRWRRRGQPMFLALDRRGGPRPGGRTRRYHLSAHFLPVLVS
Ecoli growth – blocks Escherichia coli growth; OD600, 23 h; hits give low values; OD600 absorbance (test concentration not listed); 330,000 compounds, 0.21% hits;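 active = OD600 absorbance below the run mean of sample wells minus 3.6 SD, in any replicate, cut at about 0.56 in these data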;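 also: stock transfer was 300 nL into about 60 µL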
HNF4A DNA FP – change in binding of human HNF4 alpha to DNA; HNF4a-FITC DNA binding, fluorescence polarization, 1 h; activity change, % at 10 µM; 360,000 compounds, 0.3% hits; in the data active = activity change above about 30%, passing the limit was not always enough;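 also: controls were the assay level and a saturating level of protein; the project sought stronger binding though the title names inhibitors; some compounds called inactive have numbers as strong as hits; positive values seem to mean higher polarization but the record does not say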
Target sequence (P41235 whole entry, looked up): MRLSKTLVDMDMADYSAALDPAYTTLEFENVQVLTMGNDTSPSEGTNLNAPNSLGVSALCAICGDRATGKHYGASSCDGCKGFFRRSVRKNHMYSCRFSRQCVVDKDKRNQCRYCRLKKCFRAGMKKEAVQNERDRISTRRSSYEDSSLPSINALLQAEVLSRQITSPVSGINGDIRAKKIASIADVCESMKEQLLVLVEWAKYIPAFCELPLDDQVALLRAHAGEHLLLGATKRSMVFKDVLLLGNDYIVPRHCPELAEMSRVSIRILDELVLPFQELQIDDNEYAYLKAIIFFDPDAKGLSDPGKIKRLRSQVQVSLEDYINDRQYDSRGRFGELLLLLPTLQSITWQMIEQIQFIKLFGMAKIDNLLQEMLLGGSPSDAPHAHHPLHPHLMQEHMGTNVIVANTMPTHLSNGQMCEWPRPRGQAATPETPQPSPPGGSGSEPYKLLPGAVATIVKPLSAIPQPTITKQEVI
Vif A3G – inhibitors of Vif binding to APOBEC3G peptide, primary screen, biochemical, TR-FRET, GST-Vif 1-94, biotin-A3G peptide, dose response retest (AID 1117319); TR-FRET GST-Vif / biotin-A3G peptide binding; higher % means a stronger effect; test concentration not given here; strong numbers were not always called active; inhibition, %; hits with a dose series show IC50 in µM; 260,000 compounds, 0.57% hits;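 active = above the screen mean plus three standard deviations and confirmed in dose response; inconclusive = results disagree or hit not tested in dose response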;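 also: Vif residues 1-94 fused to GST binding biotinylated APOBEC3G peptide 110-148; 0% = full assay without inhibitor and 100% = GST in place of GST-Vif; retest series ran down from 100 µM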
UCH37 DUB inh – inhibitors of human deubiquitinating enzyme UCH37. Q9Y5K5. purified proteasome/UCH37, Ub-AMC cleavage fluorescence. inhibition, % (concentration not given with the values). 330,000 compounds, 0.33% hits. AID 588478;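 active = mean of two replicates above 20%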;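 also: 0% = compound-free wells with enzyme and 100% = wells lacking proteasome; stock transfer was 100 nL into about 20 µL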
Target sequence (Q9Y5K5 whole entry, looked up): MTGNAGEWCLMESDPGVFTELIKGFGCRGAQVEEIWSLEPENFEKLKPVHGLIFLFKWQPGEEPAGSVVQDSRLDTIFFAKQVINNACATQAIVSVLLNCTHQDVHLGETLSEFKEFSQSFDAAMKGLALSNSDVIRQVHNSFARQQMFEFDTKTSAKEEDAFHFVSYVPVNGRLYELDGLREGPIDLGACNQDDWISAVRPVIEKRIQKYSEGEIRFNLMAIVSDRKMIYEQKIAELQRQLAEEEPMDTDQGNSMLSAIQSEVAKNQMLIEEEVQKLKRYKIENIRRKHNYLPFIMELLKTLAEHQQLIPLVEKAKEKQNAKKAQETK
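Schedule: 30 min plus 25 min, room temperature / Material: human UCH37 within purified proteasomes / Technique: AMC fluorescence intensity at 355/460 nm / Buffer or medium: pH 7.4 Tris-HCl (50 mM) with ovalbumin, ATP-MgCl2, DTT / Controls: wells without proteasome as full block, compound-free enzyme plus substrate as uninhibited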
RanGTP-Impb inh – inhibitors of RanGTP-importin-beta interaction, primary screen, biochemical, FRET, CFP-Ran, YFP-importin-beta, homogeneous | cell-free CFP-Ran/YFP-importin-beta FRET ratio | inhibition, % (test concentration not listed) | 300,000 compounds, 1.1% hits | AID 2216;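 active = most replicates above 15%; inconclusive = exactly half above 15%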;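 also: 0% = DMSO wells and 100% = Ran loaded with GDP instead of GTP; wells of about 40 µL received 100 nL stock; the first replicate is given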
* marks the source's active call; other numbers are inactive results; i = inactive; u = inconclusive; x = not tested or not shown; & = joins results of further samples. Some of the compounds tested (hit frequency here may not be typical).

canonical_smiles	HNF4A DNA FP	RanGTP-Impb inh	FGF22 binding	UCH37 DUB inh	AF4-AF9 inh	Vif A3G	Ecoli growth
O=C(NC(=S)NCCc1ccccc1)C1CCCCC1	-3.7	-2.6	i	1.7	1.4	x	0.725
Cc1sc2nc(CSc3ccccc3)nc(N3CCN(C)CC3)c2c1C	-3.1	2.7	x	4.1	x	-13.7%	0.712
Cc1ccc(S(=O)(=O)N2C[C@H]3N(C(=O)OC(C)C)N(C(=O)OC(C)C)C[C@H](OC(=O)NC4CC4)[C@@]3(O)C2)cc1	-1.0	x	i	x	-6.8	-4.0%	x
O=C(NCC1CCCO1)C1CCCN(Cc2cnn(-c3ccccc3)c2-n2cccc2)C1 (stereo not drawn)	-0.2	0.6	x	1.8	x	75.2%	0.685
CCOc1cc(CN2CCCC(N3CCN(c4ccc(F)cc4)CC3)C2)ccc1OC (stereo not drawn)	2.2	0.6	i	4.4	-2.2	x	0.688
CCCOc1ccc(-c2c(=O)n(OCc3ccc([N+](=O)[O-])cc3)c3ccccc3[n+]2[O-])cc1	0.6	2.1	i	0.0	-12.5	x	0.696
Clc1ccccc1Nc1nc(-c2cccnc2)cs1	-0.4	0.5	i	-0.9	-5.9	6.2%	0.649
CSCC[C@H](CO)NC(=O)[C@H]1O[C@@H](n2cnc3c(N)ncnc32)[C@H](O)[C@@H]1O	0.7	x	i	x	0.7	x	x
O=C(Nc1ccc(S(=O)(=O)Nc2ncccn2)cc1)C1CC(=O)N(c2ccc(Cl)cc2)C1 (stereo not drawn)	-2.5	-3.8	i	-0.4	2.2	x	0.721
Fc1cccc(Cl)c1CSC1=NCCS1	-0.6	0.6	i	5.3	0.4	x	0.651
Cc1cc(C)n2nc(C(=O)Nc3ccc4c(c3)OCCO4)nc2n1	0.9	x	i	2.9	1.7	-16.2%	0.657
O=C(O)c1cnc(-c2ccccc2)nc1-c1ccccc1	1.0	1.9	i	4.4	-2.1	5.1%	0.707

The list continues:
canonical_smiles	HNF4A DNA FP	RanGTP-Impb inh	FGF22 binding	UCH37 DUB inh	AF4-AF9 inh	Vif A3G	Ecoli growth
COc1ccc(C)cc1NC(=O)C(c1ccccc1)N1CCN(CC(=O)NC2CC2)CC1 (stereo not drawn)	2.2	x	i	-0.6	-1.2	3.4%	0.683
CN(C)C(=O)c1ccc(NC(=O)c2cc(-n3cnnc3)ccc2Cl)cc1	0.6	-2.1	i	0.7	-13.8	8.4%	0.69
COC(=O)c1oc2ccccc2c1NC(=O)CN1CCCC1	0.6	0.1	x	-2.8	x	1.9%	0.667
COc1ccccc1NC(=O)c1c[nH]c2ccccc12	-2.4	3.2	i	0.4	0.8	-0.2%	0.645
CC1CCC(NC(=O)c2nc(Cn3ccc([N+](=O)[O-])n3)no2)CC1 (stereo not drawn)	-3.4	1.6	i	5.4	0.0	-6.6%	0.686
O=C(O)c1cc(-c2ccc3c(c2)OCO3)nc2ccccc12	-0.9	-1.5	x	3.9	x	7.2%	0.692
CC(=O)N1CCc2c(sc(NC(=O)C3CCCN3S(=O)(=O)c3cccs3)c2C(N)=O)C1 (stereo not drawn)	-18.1	-5.6	i	2.7	-4.6	-1.2%	0.716
C#CCOCCOCCOCCNc1nc(N2CCN(C(=O)[C@H](CCCCN)n3cc(CN)nn3)CC2)nc(N2CCN(C(=O)[C@H](CO)n3cc([C@@H](N)C(C)C)nn3)CC2)n1	0.8	x	i	2.2	x	x	x
Cc1sc2ncnc(NCc3cccs3)c2c1C	-0.3	2.1	x	4.8	x	-5.6%	0.679
CCN1CCN(C(=O)CN(C)S(=O)(=O)c2ccc3ccccc3c2)CC1	3.8	7.4	i	3.5	-0.2	1.3%	0.644
O=C(Nc1ccccc1Cl)NC1(C(=O)NCC2CCCO2)CCCCC1 (stereo not drawn)	1.2	0.0	i	0.3	1.5	x	0.662
Cc1nc2ccc(C(=O)c3ccccc3)cc2[nH]1	3.0	-3.2	x	3.3	x	-1.0%	0.685

Next entries
canonical_smiles	HNF4A DNA FP	RanGTP-Impb inh	FGF22 binding	UCH37 DUB inh	AF4-AF9 inh	Vif A3G	Ecoli growth
CCC(=O)CCC(=O)c1ccc2ccccc2c1	5.4	0.7	x	x	x	-7.6%	x
O=C(Nc1ccccn1)c1cc(-c2ccc(Cl)s2)nc2ccccc12	-2.2	x	i	-90.5	4.8	-18.8%	0.69
Cc1cc([N+](=O)[O-])ccc1NC(=S)NC(=O)C(c1ccccc1)c1ccccc1	1.8	4.9	x	5.6	x	5.8%	0.857
O=C1c2ccccc2C(O)N1c1ccccc1 (stereo not drawn)	3.2	u	i	2.0	6.0	x	0.602
COc1cc(/C=N/n2nnnc2N)ccc1O	-0.8	-0.6	x	x	x	2.0%	x
CCN1CCN(CC(=O)Nc2cccc(C)c2)C(=O)C1=O	3.4	-0.7	i	5.6	3.9	x	0.718
COc1ccc(C(=O)Nc2ccccc2C(=O)N2CCOCC2)cc1OC	1.1	-5.7	i	0.6	0.3	x	0.707
N#Cc1c(-c2cccc(Cl)c2)[nH]c(=S)[nH]c1=O	0.9	-0.9	i	11.8	4.0	-1.0%	0.68
CCN(CC)CCCNC(=S)N(CCO)Cc1cc2cc3c(cc2[nH]c1=O)OCO3	1.1	-3.2	i	-66.0	-1.3	x	0.626
Cc1cc(NC(=S)Nc2ccccc2)ccc1Br	-4.2	-2.1	i	3.3	-11.2	-1.4%	0.664
O=C(CCCC(=O)N(CC(=O)NC1CCCCC1)CC1CCCO1)Nc1ccccn1 (stereo not drawn)	0.7	-2.4	x	-0.8	x	3.2%	0.754
Cc1ccc(S(=O)(=O)NNC(=O)C2COc3ccccc3O2)cc1 (stereo not drawn)	1.1	0.9	x	0.2	x	0.7%	0.7

The list continues.
canonical_smiles	HNF4A DNA FP	RanGTP-Impb inh	FGF22 binding	UCH37 DUB inh	AF4-AF9 inh	Vif A3G	Ecoli growth
O=C(O)CCN1C(=O)/C(=C\c2cccc(Oc3ccccc3)c2)SC1=S	-3.3	-0.4	i	20.9*	-3.8	x	0.704
CCOC(=O)[C@H]1[C@H]2COc3ccc(C)cc3[C@@H]2N2C(=O)CN(Cc3ccccc3)C(=O)[C@@]12C	1.1	x	i	2.5	0.8	x	x
COC(=O)c1cc(S(=O)(=O)Nc2cccc(-c3ccno3)c2)c[nH]1	-0.1	x	i	x	-0.6	-1.4%	x
O=C(O)CNC(=S)N(Cc1ccc(F)cc1)C1CCCCC1	-0.1	1.0	i	7.0	-2.7	0.2%	0.721
CC(=O)c1cccc(NC(=S)NNC(=O)c2ccco2)c1	9.0	3.6	i	3.5	-0.1	6.3%	0.668
CCS(=O)(=O)c1ccc(-c2csc(-c3ccccc3Cl)n2)c(Cl)c1Cl	0.5	3.1	x	3.2	x	-0.9%	0.824
CCCCOc1ccc(-c2cc(C(F)(F)F)c(C#N)c(SCC(=O)O)n2)cc1	33.3	-6.7	x	-216.5	-5.1	4.6%	0.674
CN(Cc1cnn(-c2ccccc2)c1)C(=O)C1CCC(=O)N(C2CC2)C1 (stereo not drawn)	3.0	-5.4	i	-0.9	-0.4	x	0.725
CN(C)C(CNC(=O)C1CCN(S(=O)(=O)c2cccc(C(F)(F)F)c2)CC1)c1ccccc1 (stereo not drawn)	-0.8	3.4	i	0.2	2.2	x	0.662
COc1ccc(OC)c(/C=C/C(=O)OCC(=O)N2CCCCC2)c1	-3.6	x	i	-46.3	-3.8	2.9%	0.701
O=C(COc1ccc(S(=O)(=O)N2CCCCC2)cc1)N1CCCC1	1.9	4.7	i	2.6	-0.9	x	0.669
Cc1ccccc1S(=O)(=O)NC(=O)C1(C)CCN1C(=O)C1(c2ccc(Cl)cc2)CCC1 (stereo not drawn)	0.8	x	i	x	-3.0	x	x

(cont.)
canonical_smiles	HNF4A DNA FP	RanGTP-Impb inh	FGF22 binding	UCH37 DUB inh	AF4-AF9 inh	Vif A3G	Ecoli growth
COc1ccc(-n2nc3cc(C)c(N)c(Br)c3n2)cc1	5.4	-4.3	x	-2.3	x	u	0.759
CSc1ncccc1C(=O)NCC(c1ccco1)N1CCCCC1 (stereo not drawn)	0.1	x	i	-3.8	-0.1	x	0.72
Cn1ccc(=NC=C(C#N)C#N)c2ccccc21	6.1	6.0	i	11.2	-0.3	5.0%	0.703
Cn1c2ccccc2c2cnn(CC(=O)NCCCN3CCN(c4ccccc4F)CC3)c(=O)c21	7.4	-0.2	i	-10.9	1.7	x	0.702
CCOc1ccc(OCC(O)CN2CCN(S(=O)(=O)c3cccc(C(F)(F)F)c3)CC2)cc1 (stereo not drawn)	3.9	-1.4	i	0.4	3.0	-5.8%	0.695
OC(COCc1ccccc1)CN1CCc2ccccc2C1 (stereo not drawn)	-1.1	2.3	x	1.8	x	u	0.669
CCN1C(=O)c2cccc3c(NC(=O)c4cccc(N5C(=O)CCC5=O)c4)ccc1c23	-0.1	-11.2	x	9.8	x	-5.3%	0.646
COc1cc(OC)c(C2=NOC(C(=O)NCc3cccs3)C2)cc1Cl (stereo not drawn)	-3.8	1.5	i	5.6	1.0	-30.6%	0.734
CCOC(=O)C1=CCN(S(=O)(=O)c2ccccc2C)C1c1ccc(Br)cc1 (stereo not drawn)	4.4	x	i	x	-0.7	x	x
CC1CCCN(CC(O)COc2ccc(Cl)cc2)C1 (stereo not drawn)	1.5	0.7	i	0.7	-30.3	u	0.689
CCOC(=O)c1cnc(Cc2ccccc2)[nH]c1=O	2.7	3.6	i	1.1	1.1	x	0.708
O=S(=O)(Nc1ccc2c(c1)nc1n2CCOC1)c1ccccc1	-3.1	-2.1	x	2.2	x	26.2%	0.648

Going on with the list:
canonical_smiles	HNF4A DNA FP	RanGTP-Impb inh	FGF22 binding	UCH37 DUB inh	AF4-AF9 inh	Vif A3G	Ecoli growth
COC(=O)/C(C#N)=C/c1cc(C)sc1C	5.3	1.6	i	6.5	1.0	x	0.671
O=C(Nc1cc2c3c(c1)C1CCCC1CN3CC1CCCC21)c1ccccc1 (stereo not drawn)	-8.4	3.6	x	-30.3	x	12.8%	0.73
CC(C)n1c(=O)n(CC(=O)NCC2CCCO2)c(=O)c2c3c(sc21)COC(C)(C)C3 (stereo not drawn)	0.1	-1.4	i	0.2	1.5	x	0.667
O=C(CCNC(=O)c1ccc(Br)o1)NCc1ccccc1Cl	4.5	1.9	x	5.9	x	-2.4%&4.6%	0.713
COc1ccc(/C=N/NC(=O)c2ccn[nH]2)cc1CSc1ccccn1	0.3	0.2	i	x	2.9	x	x

Assay outcomes as filed in PubChem.
